B2AR ag: beta2AR agonists driving receptor internalization, primary screen, cell-based, FAP fluorogen, flow cytometry; AID 504454, 2011; 340,000 tested, 0.43% active; response, % (no concentration beside the values); Am2.2-beta2AR cells; reference of the scale not given here; Beta-2 adrenergic receptor (Homo sapiens), P07550;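 active = response above a set limit, near 3 SD of response in nonfluorescent compounds, cut at about 42% in these data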;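 note: stock transfer was 100 nL into about 11 µL; a reference agonist was the positive control; negative values mostly stem from fluorescent compounds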
LANA-H2B inh: blockers of LANA interaction with H2A/H2B – biochemical, FP readout, HTS, primary screen; inhibition, % (no concentration beside the values); AID 2629, 2010; cell-free LANA-H2A/H2B peptide, fluorescence polarization; 320,000 tested, 0.6% active; in the data active = inhibition mostly above about 10%, no sharp cut-off; inactive = mostly below about 6.7%;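 note: stock transfer was 7.5 nL into about 10 µL; 0% = median of vehicle wells and 100% = median of positive control wells; one replicate is shown; the record names a cut of 25% in any replicate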
Target sequence (Q9QR71 whole entry, looked up): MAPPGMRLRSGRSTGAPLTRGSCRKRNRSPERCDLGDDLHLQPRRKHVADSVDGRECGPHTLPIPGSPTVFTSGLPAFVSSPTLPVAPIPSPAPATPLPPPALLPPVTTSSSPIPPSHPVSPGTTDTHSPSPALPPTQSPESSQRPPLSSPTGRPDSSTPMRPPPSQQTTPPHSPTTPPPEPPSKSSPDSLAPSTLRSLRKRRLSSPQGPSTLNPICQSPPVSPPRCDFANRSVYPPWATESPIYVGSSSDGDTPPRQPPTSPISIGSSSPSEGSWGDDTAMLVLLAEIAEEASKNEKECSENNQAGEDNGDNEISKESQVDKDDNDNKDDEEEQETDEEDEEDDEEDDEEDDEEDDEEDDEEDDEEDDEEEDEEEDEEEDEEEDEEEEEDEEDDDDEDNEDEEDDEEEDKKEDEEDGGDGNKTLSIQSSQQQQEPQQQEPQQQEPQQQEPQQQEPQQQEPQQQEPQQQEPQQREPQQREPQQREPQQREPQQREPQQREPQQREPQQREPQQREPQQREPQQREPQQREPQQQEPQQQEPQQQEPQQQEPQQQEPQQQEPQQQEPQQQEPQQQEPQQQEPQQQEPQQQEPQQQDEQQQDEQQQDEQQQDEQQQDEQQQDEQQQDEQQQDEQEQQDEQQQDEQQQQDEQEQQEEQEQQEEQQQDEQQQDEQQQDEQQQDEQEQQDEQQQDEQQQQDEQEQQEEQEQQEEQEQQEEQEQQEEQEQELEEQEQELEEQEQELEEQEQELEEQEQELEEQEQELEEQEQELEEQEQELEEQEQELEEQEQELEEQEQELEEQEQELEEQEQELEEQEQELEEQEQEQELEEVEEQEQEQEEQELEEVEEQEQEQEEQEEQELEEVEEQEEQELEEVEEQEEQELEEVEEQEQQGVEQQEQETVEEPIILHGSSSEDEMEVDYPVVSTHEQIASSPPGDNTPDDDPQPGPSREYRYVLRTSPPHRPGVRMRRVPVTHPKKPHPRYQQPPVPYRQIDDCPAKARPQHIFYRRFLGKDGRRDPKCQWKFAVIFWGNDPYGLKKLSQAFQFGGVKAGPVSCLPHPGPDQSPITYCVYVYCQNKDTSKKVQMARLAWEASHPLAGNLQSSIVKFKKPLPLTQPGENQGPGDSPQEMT
Vif TR-FRET: inhibitors of Vif binding to APOBEC3G peptide, primary screen, biochemical, TR-FRET, GST-Vif 1-94, biotin-A3G peptide, dose response retest (AID 1117319) | 260,000 tested, 0.57% active | Virion infectivity factor (Human immunodeficiency virus type 1 group M subtype B (isolate … | inhibition, %; hits with a dose series show IC50 in µM | TR-FRET GST-Vif / biotin-A3G peptide binding; higher % means a stronger effect; test concentration not given here; strong numbers were not always called active;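 active = above the screen mean plus three standard deviations and confirmed in dose response; inconclusive = results disagree or hit not tested in dose response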;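 note: Vif residues 1-94 fused to GST binding biotinylated APOBEC3G peptide 110-148; 0% = full assay without inhibitor and 100% = GST in place of GST-Vif; retest series ran down from 100 µM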
RanGTP-Imp inh: inhibitors of RanGTP-importin-beta interaction, primary screen, biochemical, FRET, CFP-Ran, YFP-importin-beta, homogeneous. Ran GTPase (GTP-bound) - importin-beta complex. cell-free CFP-Ran/YFP-importin-beta FRET ratio. inhibition, % (test concentration not listed). 300,000 tested, 1.1% active. AID 2216, 2009;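 active = most replicates above 15%; inconclusive = exactly half above 15%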;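 note: 0% = DMSO wells and 100% = Ran loaded with GDP instead of GTP; wells of about 40 µL received 100 nL stock; the first replicate is given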
ALR H2O2 inh: inhibitors of human ALR sulfhydryl oxidase, primary screen, biochemical, H2O2 detection, HRP-luminol luminescence, single point; FAD-linked sulfhydryl oxidase ALR (Homo sapiens), P55789; purified ALR, DTT oxidation; inhibition, % (no concentration beside the values); 290,000 tested, 3.8% active; AID 485317, 2010;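 active = mean and each replicate at 75% or more; inconclusive = only one of the two met; inactive = neither met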;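 note: stock transfer was 7.5 nL into about 7.5 µL; 0% = neutral wells and 100% = wells with inactivated enzyme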
Calb FLC: C. albicans growth inhibition with fluconazole, primary screen, CaCi-2 strain, Alamar Blue fluorescence | C. albicans CaCi-2 (fluconazole-resistant clinical isolate) + fluconazole, 48 h | growth inhibition, % (no concentration beside the values) | 300,000 tested, 0.57% active | AID 1979, 2009;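 active = most replicates above 75%; inconclusive = exactly half above 75%; inactive = most below 75%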;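 note: all wells also contain fluconazole at 8 µg/ml as a sub-toxic cotreatment; 0% = median of DMSO wells and 100% = median of geldanamycin control wells; wells of about 8 µL received 7.5 nL stock; the first replicate is given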
HNF4A DNA FP: change in binding of human HNF4A to DNA, primary screen, biochemical, fluorescence polarization, FITC-DNA. activity change, % at 10 µM. Hepatocyte nuclear factor 4-alpha (Homo sapiens), P41235. 360,000 tested, 0.3% active. 1 h; in the data active = activity change above about 30%, passing the limit was not always enough;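 note: controls were the assay level and a saturating level of protein; the project sought stronger binding though the title names inhibitors; some compounds called inactive have numbers as strong as hits; positive values seem to mean higher polarization but the record does not say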
* hit, by the source's call; ? = inconclusive; · = not tested or not shown; & = joins results of further samples.

SMILES | B2AR ag | LANA-H2B inh | Vif TR-FRET | RanGTP-Imp inh | ALR H2O2 inh | Calb FLC | HNF4A DNA FP
O=C(Nc1ccc(-c2nnc3n2CCCCC3)cc1)c1cc2ccccc2o1 | -4 | -9.3 | 17% | -0.9 | -2 | -16 | -3.7
Cc1ccc(NC(=O)[C@@H]2CCCN2C(=O)[C@@H]2Cc3ccccc3CN2)c(C)c1 | 2 | 0.1 | · | -1.9 | -41 | -18 | 0.8
O=C1CC(c2ccco2)CC2=C1C=Nc1ccccc1N2 (centres undefined) | -14 | 9.5 | 17% | 6.9 | 32 | 11 | -0.5
CCn1cc(C(=O)NCCCN2CCC(C)CC2)c(=O)c2cc(S(=O)(=O)N(C)C3CCCCC3)ccc21 | 1 | -1.6 | 2% | 3.4 | -2 | 5 | 1.1
COc1ccc(C)c2sc(=NC(=O)c3ccc(C(C)=O)cc3)n(C)c12 | -8 | 1.1 | -1% | 0.4 | -3 | 1 | -2.5
COc1cc(OC)cc(C(=O)NC(=S)Nc2ccc(N3CCCC3)cc2)c1 | -2 | 1.5 | · | -5.1 | · | -1 | 4.0
CC1CN(CC(O)COC2CCC(C(C)(C)C)CC2)CC(C)O1 (centres undefined) | 10 | 1.1 | · | -0.8 | · | -13 | 1.2
O=C(COc1ccccc1Cl)NCCCN1CCOCC1 | -8 | -2.7 | -5% | 5.0 | -3 | -1 | 0.3
CCn1c(=O)c(=O)[nH]c2cc(C(=O)NC3CCCC3)ccc21 | -2 | -1.4 | 3% | -1.5 | 1 | 1 | -7.5
Cc1cc(-c2nn(-c3ccccc3F)cc2CN2CCCC(CO)C2)c(C)s1 (centres undefined) | -5 | 3.5 | 11% | 2.5 | 3 | 2 | 7.3
CC(NC(=O)c1ccc(Cl)cc1)c1nnc(SCC(=O)NC2=NCCS2)n1C (centres undefined) | -8 | -4.0 | · | 0.1 | -3 | -7 | 3.1
COc1ccc(C(=O)CC(=O)c2ccc(F)cc2)cc1 | 2 | -7.4 | · | 5.0 | 3 | -1 | 1.9
Clc1ccccc1CN1CCSCC1 | -2 | 3.1 | · | 1.3 | · | -1 | 2.0
Cc1ccc(OC/C(=N\O)C(C)(C)C)c([N+](=O)[O-])c1 | 5 | -2.3 | 8% | -1.8 | -3 | -1 | 0.7
COc1ccc(CNC(=O)c2cc(C)nc3ccccc23)cc1OC | -5 | -2.4 | 3% | -0.1 | -13 | -4 | -2.8
COC(=O)CSc1nc2cc(C)ccc2cc1C#N | 8 | 0.4 | -2% | -1.0 | -5 | 20 | -1.6
CN(CC(=O)Nc1ccccc1N1CCOCC1)CC(=O)Nc1ccc(F)c(F)c1F | 1 | 0.6 | 2% | 2.4 | 1 | -9 | 2.7
CCCc1ccc(OCc2ccc(C(=O)Nc3cccc(C)n3)o2)c(OC)c1 | 2 | -1.9 | · | -0.7 | -1 | 0 | -4.8
Cc1c(NC2(c3nnnn3-c3ccc(Br)cc3)CCCCC2)c(=O)n(-c2ccccc2)n1C | -13 | 4.6 | 6% | -2.5 | · | -9 | -0.7
CN(C(=O)c1ccc(NC(=O)Cc2cccc(NC(=O)C3CCCN(C(=O)C4CCCC4)C3)c2)cc1)C1CC1 (centres undefined) | -11 | · | -6% | · | · | · | -4.2
COc1ccc(N2CCN(C(=O)c3cc(N4C(=O)C5C6CCC(C6)C5C4=O)ccc3Cl)CC2)cc1 (centres undefined) | 2 | -1.2 | · | -1.1 | 28 | -8 | 2.9
CN(Cc1ccccc1)C(=O)C1CCCN(Cc2ccc(Cl)cc2)C1 (centres undefined) | -1 | 4.3 | -9%&21% | -0.6 | · | 9 | 0.1
O=C(CSCc1nc2ccccc2[nH]1)Nc1ccc(Oc2ccccc2)cc1 | -6 | -2.3 | · | ? | -8 | 2 | -35
CCCNC(=O)N1CCN(c2nc(C(C)C)c3c(c2C#N)CC(C)(C)OC3)CC1 | -15 | -0.7 | -16% | 2.6 | -5 | 8 | -0.9
Cc1nnnn1CC(=O)Nc1ccccc1[N+](=O)[O-] | -5 | -0.2 | 31% | -2.7 | · | -21 | -0.1

Among those listed so far, these contain fluorine.
SMILES | B2AR ag | LANA-H2B inh | Vif TR-FRET | RanGTP-Imp inh | ALR H2O2 inh | Calb FLC | HNF4A DNA FP
Cc1cc(-c2nn(-c3ccccc3F)cc2CN2CCCC(CO)C2)c(C)s1 (centres undefined) | -5 | 3.5 | 11% | 2.5 | 3 | 2 | 7.3
COc1ccc(C(=O)CC(=O)c2ccc(F)cc2)cc1 | 2 | -7.4 | · | 5.0 | 3 | -1 | 1.9
CN(CC(=O)Nc1ccccc1N1CCOCC1)CC(=O)Nc1ccc(F)c(F)c1F | 1 | 0.6 | 2% | 2.4 | 1 | -9 | 2.7

Further structures follow:
SMILES | B2AR ag | LANA-H2B inh | Vif TR-FRET | RanGTP-Imp inh | ALR H2O2 inh | Calb FLC | HNF4A DNA FP
CC(=O)c1ccc(S(=O)(=O)N2CCN(C(=O)CN3C(=O)NC4(CCCC4)C3=O)CC2)cc1 | -4 | 1.8 | -3% | 11 | -5 | · | 2.8
CC(C)(C)NC(=O)NC(=O)COC(=O)c1nc(-c2ccccc2)n(-c2cccc(C(F)(F)F)c2)n1 | -2 | -2.3 | -4% | 2.1 | -5 | 14 | -4.8
COc1ccc(/C=C/C(=O)NC(=S)Nc2ccc(S(=O)(=O)Nc3cc(C)on3)cc2)cc1 | 11 | 1.6 | · | 0.1 | ? | -21 | -2.3
COCCCN1CC(=O)N2C(c3ccccc3)c3[nH]c4ccccc4c3C[C@H]2C1=O (some centres undefined) | 4 | -5.8 | -3% | -0.8 | -3 | 14 | 5.5
O=C(NNC1=NCCCCC1)Nc1cccc(Cl)c1 | 4 | · | · | 0.8 | · | -11 | -1.9
Cc1ccc(-n2cc(CNCC3CC(=O)N(C4CC4)C3)c(-c3cccc(C)c3)n2)cc1 (centres undefined) | 11 | -2.3 | -1% | ? | -2 | 5 | 2.3
Cc1cc(C)nc(SCC2COc3ccccc3O2)n1 (centres undefined) | -16 | -2.5 | 1% | 4.2 | 7 | 0 | 1.4
CCn1c(SCC(=O)Nc2ccc(S(=O)(=O)Nc3onc(C)c3C)cc2)nnc1-c1ccccc1 | -5 | -8.1 | 6% | -1.3 | 53 | 20 | 0.0
CCOc1ccc(-c2csc(C3COc4ccccc4O3)n2)cc1 (centres undefined) | 4 | -4.9 | -17% | · | -2 | -9 | 1.9
Cc1nc2ccc(N=NC3=C(O)CC(C)(C)CC3=O)cc2s1 | -23 | 2.2 | 10% | -7.1 | · | -6 | 3.8
COc1cc(SSc2cc(OC)cc([N+](=O)[O-])c2N)c(N)c([N+](=O)[O-])c1 | 1 | -1.2 | 6% | -12 | -217 | · | -6.0
CCCn1nnnc1NC(=O)c1cccs1 | 3 | 1.4 | -2% | 6.0 | -11 | -16 | -1.0
Cc1ccc(S(=O)(=O)N(C)c2ccc(OCC(=O)Nc3nc4c(ccc5ccccc54)s3)cc2)cc1 | 5 | 5.0 | 4% | -1.3 | 84* | -4 | -1.5
NC1=NC[C@H](Cc2ccc(O)cc2)N1CCCCC1CCCCC1 | -8 | -3.8 | -10% | 3.2 | 76* | 35 | 3.3
CC(=O)C1=C(O)C(=O)N(C)C1c1ccccc1[N+](=O)[O-] (centres undefined) | -2 | 4.8 | 16% | ? | 0 | -19 | 2.8
CC(=O)NC(Cc1cccc(C)c1)C(=O)NC1CCN(c2ncccc2[N+](=O)[O-])CC1 (centres undefined) | -5 | 1.9 | 18% | -1.7 | -8 | -3 | 3.1
CCOc1ccc2nc(NC(=O)COc3ccc(N(C)S(=O)(=O)c4ccc(C)cc4)cc3)sc2c1 | -8 | -2.5 | · | -0.2 | -5 | 8 | -1.7
O=S(=O)(Nc1ccccc1-c1ccccc1)c1ccccc1 | 0 | · | -7% | · | · | · | 2.2
O=C(CNS(=O)(=O)c1cccc(Br)c1)NCCCc1ccccc1 | 0 | -2.6 | -11% | 3.6 | -9 | 8 | -0.6
CCN(CC)CCNC(=O)c1cc(Br)c(N)cc1OC | -8 | 0.4 | · | · | -19 | · | 2.4
C[C@H](N)c1nnc(SCc2ccc(Cl)cc2Cl)o1 | 2 | -10 | 2% | ? | 99* | ? | -1.7
N#CCC(=O)Nc1ccc(C(=O)OCC(=O)c2c[nH]c3ccccc23)cc1 | 9 | -4.8 | -6% | · | 46 | · | 9.8
CC(=O)N1C(=O)C2(C(C#N)=C(N)Oc3c2c(C)nn3-c2ccccc2)c2ccccc21 (centres undefined) | 11 | -0.3 | 6% | 1.8 | -20 | -9 | -1.8
Cc1cc(C)c2nc(N3CCC(C(=O)NCCCN4CC(C)CC(C)C4)CC3)sc2c1 (centres undefined) | 37 | -1.7 | 4% | 2.9 | 2 | 19 | 2.5
COC(=O)CNC(=O)c1c(-c2c(Cl)cccc2Cl)noc1C | 5 | -0.4 | -1% | 0.2 | 5 | -3 | 3.8

Next records.
SMILES | B2AR ag | LANA-H2B inh | Vif TR-FRET | RanGTP-Imp inh | ALR H2O2 inh | Calb FLC | HNF4A DNA FP
CCn1c(COc2ccccc2)nnc1SCC(=O)NC1CCCCC1 | 6 | 2.2 | -3% | -0.4 | 8 | 1 | 0.6
COc1cccc(/C=N/Nc2ncnc3scc(-c4ccccc4)c23)c1O | 16 | 5.9 | 21% | 1.0 | 4 | 109* | 4.3
CC(C)=CCC(C)(C)C1OCCN1C(=O)c1ccccc1 (centres undefined) | 62* | 1.6 | 5% | -5.5 | 0 | 2 | -0.8
CCOC(=O)c1c(NC(=O)c2ccnn2C)sc(C)c1C | -2 | -10 | -4% | 6.4 | -6 | 4 | 0.4
O=S(=O)(NCc1cn2ccccc2n1)c1cccs1 | -5 | -1.5 | -4% | 5.2 | 0 | -10 | -0.8
COc1ccc(Cn2c(=O)[nH]c3cc(C(=O)N4CCN(c5ccccc5OC)CC4)ccc3c2=O)cc1 | -1 | -0.1 | · | -5.0 | -1 | 9 | -0.7
O=C(CC1CCCCC1)NCc1cn2ccsc2n1 | -19 | 2.9 | -7% | -5.4 | -3 | -2 | 1.2
Cc1cc(C)n(C(CC(=O)N2CCc3ccccc3C2)C(=O)O)n1 (centres undefined) | 13 | -0.5 | 17% | -1.3 | -4 | -25 | -5.8
O=C(NC(=S)Nc1cc([N+](=O)[O-])ccc1O)c1ccc2c(c1)OCO2 | 18 | 1.8 | · | -0.7 | 4 | 0 | 0.9
O=S(=O)(c1ccc(Br)cc1)c1nc(-c2ccccc2)oc1NCc1cccnc1 | 17 | 6.2 | 1% | 2.3 | -17 | 2 | 1.1
COc1ccc(-c2[nH]ncc2CN2CCN(c3ccc(F)cc3)CC2)cc1 | 0 | -4.1 | -9% | -2.3 | 69 | 8 | 1.4
CCOC(=O)N1CCN(C(=O)C2CCN(S(=O)(=O)N(CC)CC)CC2)CC1 | 2 | -0.3 | 1% | ? | -6 | -4 | -2.3
Cc1ccc(N2CC(C(N)=O)CC2=O)cc1 (centres undefined) | 5 | -2.3 | 17% | -4.1 | -6 | -1 | 2.0
Cc1nn(-c2ccccc2)c(C)c1C(=O)Nc1nnc(-c2ccco2)o1 | 0 | 0.0 | 4% | -1.5 | 13 | 84* | -1.9
CCOC(=O)c1ccc(S(=O)(=O)N2CCN(CC3CC=CCC3)CC2)cc1 (centres undefined) | 13 | 0.5 | -4% | -0.9 | 5 | -3 | 0.4
CC1CCN(CCCNC(=O)CN2C(=O)CSc3ccc(S(=O)(=O)N4CCOCC4)cc32)CC1 | 7 | -6.6 | -2% | 0.5 | 3 | 0 | 5.4

From PubChem BioAssay
